Screening results deposited in PubChem by ICCB-Longwood Screening Facility, Harvard Medical School.
CapD inh: inhibitors of Bacillus anthracis CapD enzyme | purified CapD enzyme, fluorescence intensity read-out; hits give low values; some hits fall short of the stated cut | z-score (no concentration beside the values) | 0.23% of 140,000 active;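 active = z-score under -4 in either of two replicates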;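 also: stock transfer was 100 nL into about 40 µL; score is relative to mean and spread of the plate; one replicate is shown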
AID504770: E. coli YBA685 growth inhibition, screen for V. cholerae RctB inhibitors; E. coli YBA685 rctB-dependent plasmid, OD600 growth, 3 h; hits give low values; z-score (no concentration beside the values); 0.27% of 130,000 active;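 active = z-score under -2 on both plates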;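 also: wells of about 30 µL received 100 nL stock; score is relative to mean and SD of the test wells; the first replicate is given; strong numbers were not always called active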
* marks the source's active call; other numbers are inactive results; . = not tested or not shown; & = joins results of further samples.

nr	Compound	CapD inh	AID504770
1	CC1CC(C)CN(C(=O)CSc2nnc(-c3ccc4c(c3)OCO4)n2-c2ccccc2)C1 (stereo not drawn)	.	-0.6
2	COc1ccc(/C=C2\SC(=O)N(Cc3ccc(Br)cc3)C2=O)cc1O	0.42	.
3	CC1C2CC(C/C2=N/O)C1(C)C (stereo not drawn)	0.02	1.5
4	N#CCCN1CCN(Cc2ccccc2)CCC1=O	.	-0.7
5	CCCN(CCC)c1ccc(/C=N/NC(=O)OCC)cc1	54	2.2
6	O=C(Nc1ccc(F)cc1)c1c(Cl)nc2ccccn12	-0.12	-0.7
7	Cc1[nH]c2ccccc2c1/C=N/NC(=O)CN1CCSCC1	-0.14	-0.4
8	O=C(Nc1ccccc1)N1CCCN(c2nccc(C(F)(F)F)n2)CC1	1.4	-0.3
9	CCCc1c(C)nc(-c2ccc(C)cc2)nc1OC(=O)N(C)C	-0.68	-0.05
10	CCOc1ccc2nc(SCC(=O)O)c(C)cc2c1	.	-1
11	Cc1cc(C)c(CCOC(=O)NNC(=O)c2cncc(Br)c2)c(C)c1	-1	.
12	CCN(C(=O)CSc1nc2ccccc2n1CCC#N)C1=CCCC1	.	-0.05
13	NC12CC3CC(C1)CC(c1ccccc1)(C3)C2	0.79	0.25
14	COC(=O)C1CSC(c2ccc(Cl)cc2)=CC1N(C)C (stereo not drawn)	-0.9	1.6
15	CCOC(=O)c1c(NC(=O)C(C)Sc2nnc(CNC(=O)c3ccco3)n2-c2ccc(F)cc2)sc2c1CCC2 (stereo not drawn)	1.4	.
16	CCCN1CCN(C(=O)C2COc3ccccc3O2)CC1 (stereo not drawn)	-0.33	-0.45
17	CC(=O)NC1=NC(=O)/C(=C/c2c(C)n(Cc3ccc(F)cc3)c3ccccc23)S1	-0.58	.
18	Cc1ccc(C(=O)C2Sc3nnc(C)n3NC2c2ccc(Cl)cc2)cc1 (stereo not drawn)	.	-0.05
19	Cc1n[nH]c(C)c1Cc1ccc(C(=O)O)cc1	0.15	0.3
20	O=C(CSC1=NC(=O)C(Cc2ccccc2)C(=O)N1)Nc1ncccn1 (stereo not drawn)	0.015	.
21	COc1cccc(/C=N/NC(=O)c2cc3ccccc3cc2O)c1OC	0.48	.
22	O=C(NN1S(=O)(=O)c2ccccc2S1(=O)=O)c1cccc(Br)c1	-3.7*	.
23	O=C(NNC(=O)c1csc(Cn2cnc(Cl)c2Cl)n1)OCCc1ccccc1Br	-0.11	.
24	CCc1ccc(Cn2ncc3c(C(=O)O)cc(C)nc32)cc1	.	1.1
25	CCOC(=O)c1c(/N=c2\oc3ccc4ccccc4c3cc2C(N)=O)sc2c1CCCC2	2.8	0.05

Additional entries:
nr	Compound	CapD inh	AID504770
26	CC(C)(C)c1cc2nc(C(F)(F)F)cc(N3CCN(C(=O)OCC4CCCCN4Cc4cc5c(cc4Cl)OCO5)CC3)n2n1 (stereo not drawn)	9.1	.
27	COc1ccc(/C=C/c2nc3sc4c(c3c(=O)o2)CCCC4)cc1	-0.34	.
28	O=C(Nc1ccc(C(=O)OC2CCCCC2)cc1)c1ccncc1	0.37	-0.2
29	NC(=S)Cc1ccc(-c2csnn2)cc1	-0.03	-0.35
30	Cc1cccc(Nc2nc3nonc3nc2N/N=C\c2cccs2)c1C	.	0.55
31	O=C1CSC(c2cccnc2)N1Cc1cccs1 (stereo not drawn)	0.46	.
32	CC(C)(C)c1ccc(OCCCSC#N)cc1	0.39	0.3
33	CC(C)(C)NC(=O)N1CCn2cccc2C1c1cccnc1 (stereo not drawn)	.	-0.75
34	CCOc1cc(C2C(C#N)=C(N)Oc3n[nH]c(C)c32)ccc1OCc1ccc(C(=O)OC)o1 (stereo not drawn)	-1.4	.
35	CC(C)n1c(=O)c(=O)n(C)c2cc(C(F)(F)F)ccc21	-0.56	.
36	COc1ccc(C2=NN(S(=O)(=O)c3ccc(C)cc3)C(c3ccccc3)C2)cc1OC (stereo not drawn)	-0.36	.
37	C=CCN1CN(CC=C)CN(CC=C)C1	.	-1.5
38	C=CCOc1ccc(/C=C2\C(=O)N(c3ccc(Cl)c(C(=O)O)c3)N=C2C)cc1OC	-0.82	2.8
39	CC1CCN(C(=O)c2cnn3ccccc23)CC1	1.7	-0.8
40	CCCc1[nH]nc2c1C(c1ccc(OC)cc1CSc1ccccn1)C(C#N)=C(N)O2 (stereo not drawn)	0.36	.
41	N/C(Cc1cccc2ccccc12)=N\OC(=O)c1ccc(Br)o1	0.3	-2.1
42	O=C1/C(=C/c2cccnc2)c2ccccc2N1c1ccccc1	.	-0.2
43	N#CC(C(=O)Nc1ccc(Oc2ccccc2)cc1)=C(SCc1ccc(Cl)cc1)SCc1ccc(Cl)cc1	-0.55	.
44	CCN1C(=O)c2cccc3c(N)ccc1c23	-1.2	-0.3
45	COC(=O)c1cc(C(=O)OC)c2ccccc2n1	11	1.9
46	COc1ccc(CCNC(=O)OC(C)(C)C(C)=O)cc1OC	0.14	.
47	C=CCSc1nc(N)c(C(=O)Nc2ccccc2)cc1C(N)=O	0.19	0.95
48	CCC(C)(C)NS(=O)(=O)c1ccccc1OC	.	0.1
49	CC(=O)Nc1cccc(N2C(=O)CCC2=O)c1	0.5	0.5
50	COc1ccccc1OCCNc1ncnc2sccc12	.	0.75

Single entries from above.
Under AID504770, C=CCN1CN(CC=C)CN(CC=C)C1 has the entry -1.5
Under AID504770, O=C1/C(=C/c2cccnc2)c2ccccc2N1c1ccccc1 has the entry -0.2
Under CapD inh, O=C1CSC(c2cccnc2)N1Cc1cccs1 (stereo not drawn) has the entry 0.46

(cont.)
nr	Compound	CapD inh	AID504770
51	CCOC(=O)c1sc(NC(=O)Cn2nc(C(F)(F)F)c(Br)c2C)c(C(=O)OCC)c1C	0.82	.
52	COc1ccc(S(=O)(=O)Nc2c(O)c3ccccc3oc2=O)cc1OC	5.3	-0.3
53	CCCc1c(O)nc(SCCC(=O)O)[nH]c1=O	0.27	-0.35
54	CCCCN1C(=O)S/C(=C/c2ccc(OC)cc2)C1=O	.	-0.6
55	CCOC(=O)c1ccc(NC(=O)CSc2ccc(C(F)(F)F)cc2[N+](=O)[O-])cc1	-1.3	.
56	Cc1nc2cc(CO)ccc2n1-c1ccccc1	-0.41	-0.65
57	Cc1ccc(C2CC(c3ccc(Br)cc3)=NN2C(=O)CCC(=O)O)cc1 (stereo not drawn)	-0.01	.
58	CCSCCOC(=O)C1=C(C)NC2=C(C(=O)CC(c3ccccc3)C2)C1c1ccc(N(C)C)cc1 (stereo not drawn)	0.07	.
59	Nc1c(S(=O)(=O)Cc2ccccc2)sc2nc3c(cc12)CCCC3	.	-0.4
60	O=C(CCc1nnc2ccc(N3CCCCC3)nn12)NCCc1c[nH]c2ccccc12	0.48	-1.2
61	COc1ccc2[nH]c3c(=O)n(CCc4ccc(Cl)cc4)cnc3c2c1	-3.8	0.25
62	O=C(Nc1ccc2ccccc2c1)c1ccccc1O	5.2	0.85
63	Cc1cc(S(=O)(=O)NCCNc2nccc(C(F)(F)F)n2)c(C)cc1Cl	4.2	.
64	CC(NC(=O)CSc1nnc(SCC(=O)NC(C)c2ccccc2)s1)c1ccccc1 (stereo not drawn)	0.03	.
65	CCn1c(=O)c(C)nc2cc(C(=O)O)ccc21	.	-0.65
66	CCOC(=O)[C@@H](N)Cc1c[nH]c2ccccc12	0.8	.
67	CCc1ccc(N2Cc3ccccc3C2)cc1	0.17	0.25
68	CC1CCCN(C(=O)C2CCN(CC3CCCCC3)CC2)C1 (stereo not drawn)	0.015	-0.65
69	O=C(CCS(=O)(=O)c1cccs1)N1CCCC1	-0.57	0.75
70	Cc1ccc(OCc2nc(C#N)c(NCCCN3CCOCC3)o2)cc1	0.48	1.6
71	Cc1[nH]n(-c2ccc(Cl)cc2)c(=O)c1C=Nc1ccc(S(=O)(=O)N2CCCCC2)cc1	-0.39	.
72	O=C1c2ccccc2C(=O)N1c1ccc(OC(F)(F)F)cc1	-0.12	1.2
73	COc1ccc(CCNC(=O)CSc2c3c(nc4cc(Cl)ccc24)CCCC3)c(OC)c1	5.6	-0.9
74	O=C(NC1=NCCS1)c1ccc2snnc2c1	-0.46	-0.4
75	CCOc1cc(N2CCOCC2)c(OCC)cc1NC(=O)CSc1ccccc1C(=O)O	.	-0.35

Additional compounds
nr	Compound	CapD inh	AID504770
76	O=C(CN1C(=O)c2ccccc2C1=O)OCCCN=C1NS(=O)(=O)c2ccccc21	0.26	.
77	O=C(C/C(=C1/CCc2ccccc2C1=O)c1ccccc1)c1ccccc1	-0.59	1.6
78	CCn1c(CC(=O)Nc2ccccc2)n[nH]c1=S	.	-0.65
79	Cc1cc(-c2ccc(C)o2)c(C#N)c(SCC(=O)c2ccc(Br)cc2)n1	-0.75	.
80	OC1/C(=C/c2ccccc2Cl)N2CCC1CC2 (stereo not drawn)	-0.26	.
81	Cc1ccc(NC(=O)/C(C#N)=N/Nc2ccc(S(=O)(=O)Nc3ncccn3)cc2)cc1C	.	-1.5
82	Cc1nnc(SCC(=O)c2ccc(F)cc2)o1	0.48	-1.1
83	COC(=O)c1c(-c2snnc2C)n[nH]c1C	11	-0.9
84	CC1Cc2ccccc2N1C(=O)CN1CCN(c2ccc(C(F)(F)F)cn2)CC1 (stereo not drawn)	.	0.3
85	O=C(NCc1c(-n2cccc2)sc2c1CCCC2)NC12CC3CC(CC(C3)C1)C2	0.3	-0.45
86	C=CCc1nc(C)c(CC(=C)C)c(=O)[nH]1	0.49	-0.05
87	CCOc1ccc(-n2ccc3nc(C)c(C(=O)O)cc3c2=O)cc1	0.11	-0.4
88	N#CNC1=NCN(CCCN2CCOCC2)CN1	.	0.15
89	COc1ccc(-c2noc(COC(=O)c3cccc(OC(F)F)c3)n2)c(OC)c1	.	1.1
90	COC(=O)c1ccc(/C=C2/SC(=O)N(CNc3ccc(OC)cc3OC)C2=O)cc1	-0.085	.
91	CCc1ccc(NC(=O)CCS(=O)(=O)c2cccc3nonc23)cc1	0.93	.
92	CC(=O)Nc1ccc(CN2CCCCC2)cc1	0.025	0.6
93	CN(C)S(=O)(=O)c1cccc2nsnc12	-1.2	2&-0.15
94	CCN(CC)c1ccc(C(=O)Nn2c(-c3cc(OC)cc(OC)c3)nc3ccccc3c2=O)cc1	-0.92	.
95	CC1CCCC(C)N1CC(O)COc1ccc(Cl)cc1 (stereo not drawn)	.	1.5
96	COc1ccccc1CNc1ccc(CNc2ncn[nH]2)cc1	0.025	0.4
97	CC(=O)N1CCC(C(=O)Nc2nc(-c3ccccc3)ns2)CC1	0.05	0.1
98	CC(=O)Nc1ccc(OCc2ncc(C(F)(F)F)cc2Cl)cc1	0.52	-0.95
99	O=C(Cc1c(O)c2ccccc2oc1=O)c1ccccc1O	0.43	0.25
100	CC1CC(C)CN(c2cnn(-c3ccccc3)c(=O)c2Cl)C1 (stereo not drawn)	.	-0.5

The list goes on.
nr	Compound	CapD inh	AID504770
101	Cc1cccc(-n2ncc3c(NC(C)(C)C)ncnc32)c1	-0.53	-0.5
102	N#CCc1nc(-c2ccc(Cl)c(Cl)c2)cs1	11	-0.9
103	C=CCn1c(=S)[nH]c2scc(-c3ccc(Cc4ccccc4)cc3)c2c1=O	0.29	.
104	CC1=CC(=C(C#N)C#N)C=C(C)N1c1cccc(F)c1	.	-0.65
105	CC(C)NC(=O)OCc1noc(-c2ccc(Cl)cc2)n1	0.51	0.7
106	COc1cc(/C=C/C(=O)OC2CCCCC2=O)cc(OC)c1OC (stereo not drawn)	.	-0.1
107	C=CCOc1ccc(/C=C2\C(=O)N(c3ccc(C(=O)OC(C)C)cc3)N=C2C)cc1OC	-0.12	.
108	CCn1c(N)c(C(=O)NCC2CCCO2)sc1=S (stereo not drawn)	.	0.05
109	Clc1ccc(COCCn2cc(-c3ccncn3)cn2)c(Cl)c1	-0.39	.
110	CC1=NC(C(F)(F)F)(C(F)(F)F)C2=C(CC(C)(C)CC2=O)N1Cc1ccco1	-0.36	1.4
111	O=C(N=c1scc(-c2ccccc2)n1-c1ccccc1)c1ccccc1	5.7	0.2
112	CC(C)CCOCC1CC2(CC(C)(c3csc(Nc4ccccc4)n3)OC2=O)C(=O)O1 (stereo not drawn)	-0.4	.
113	Cc1ccc2c(c1)c1c3n2CCN(C(=O)c2ccco2)C3CCC1 (stereo not drawn)	0.28	0.55
114	CC(C)(C)c1csc(=S)n1CCc1ccc(Cl)cc1	0.35	.
115	CC(C)OC(=O)c1ccc(NC(=O)c2ccc(Cn3cc(Cl)cn3)cc2)cc1	1	0.05
116	COC(=O)c1ccc(CSc2ccccc2N)o1	-0.03	-0.9
117	Cc1ccc2c(c1)-c1c(ssc1=S)C(C)(C)N2C(=O)CC(C)C	0.9	.
118	COC(=O)c1ccccc1NC(=O)CSc1nc2sc(C)c(C)c2c(=O)n1-c1ccccc1	0.49	.
119	Cc1ccc(/C(O)=C2\C(=O)C(=O)N(c3nncs3)C2c2cccc(Cl)c2)cc1 (stereo not drawn)	-0.24	.
120	COC(=O)CSC(=S)N1CCCC(C)C1 (stereo not drawn)	.	-0.6
121	CCCn1c(N)c(C(=O)CSc2nc3cc(Cl)ccc3c(=O)n2C2CCCC2)c(=O)[nH]c1=O	.	0.15
122	CC1CCCN(C(=O)COC(=O)c2ccc(Cl)nc2)C1 (stereo not drawn)	0.82	-0.05
123	CC1CN(CCc2ccccc2)c2nc3c(c(=O)n(CC(N)=O)c(=O)n3C)n2C1 (stereo not drawn)	0.67	0.15

Random excerpt: 5 compounds from above, in no set order.
nr	Compound	CapD inh	AID504770
112	CC(C)CCOCC1CC2(CC(C)(c3csc(Nc4ccccc4)n3)OC2=O)C(=O)O1 (stereo not drawn)	-0.4	.
118	COC(=O)c1ccccc1NC(=O)CSc1nc2sc(C)c(C)c2c(=O)n1-c1ccccc1	0.49	.
121	CCCn1c(N)c(C(=O)CSc2nc3cc(Cl)ccc3c(=O)n2C2CCCC2)c(=O)[nH]c1=O	.	0.15
123	CC1CN(CCc2ccccc2)c2nc3c(c(=O)n(CC(N)=O)c(=O)n3C)n2C1 (stereo not drawn)	0.67	0.15
115	CC(C)OC(=O)c1ccc(NC(=O)c2ccc(Cn3cc(Cl)cn3)cc2)cc1	1	0.05

Not a hit list; any-hit rate near 0.37%.
